High-throughput results as filed in PubChem BioAssay.
KCNQ2 pot – KCNQ2 (rat) channel potentiation | O88943 | CHO-K1 KCNQ2, FluxOR thallium flux fluorescence; active compounds read high | B-score at 10 µM | hit rate 0.54% among 310,000;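 active means fluorescence ratio B-score at least 3 SD of library B-scores, with initial fluorescence B-score within 3 SD, cut at about 5.3 in these data; same plate scores as AID 2156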;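 further: B-score of peak minus minimum over baseline fluorescence ratio after K+ and Tl+ stimulus; positive B-score means potentiation of KCNQ2 with more thallium influx and brighter signal; only the inactives scoring about 0 or higher are listed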
Target sequence (O88943 whole entry, looked up): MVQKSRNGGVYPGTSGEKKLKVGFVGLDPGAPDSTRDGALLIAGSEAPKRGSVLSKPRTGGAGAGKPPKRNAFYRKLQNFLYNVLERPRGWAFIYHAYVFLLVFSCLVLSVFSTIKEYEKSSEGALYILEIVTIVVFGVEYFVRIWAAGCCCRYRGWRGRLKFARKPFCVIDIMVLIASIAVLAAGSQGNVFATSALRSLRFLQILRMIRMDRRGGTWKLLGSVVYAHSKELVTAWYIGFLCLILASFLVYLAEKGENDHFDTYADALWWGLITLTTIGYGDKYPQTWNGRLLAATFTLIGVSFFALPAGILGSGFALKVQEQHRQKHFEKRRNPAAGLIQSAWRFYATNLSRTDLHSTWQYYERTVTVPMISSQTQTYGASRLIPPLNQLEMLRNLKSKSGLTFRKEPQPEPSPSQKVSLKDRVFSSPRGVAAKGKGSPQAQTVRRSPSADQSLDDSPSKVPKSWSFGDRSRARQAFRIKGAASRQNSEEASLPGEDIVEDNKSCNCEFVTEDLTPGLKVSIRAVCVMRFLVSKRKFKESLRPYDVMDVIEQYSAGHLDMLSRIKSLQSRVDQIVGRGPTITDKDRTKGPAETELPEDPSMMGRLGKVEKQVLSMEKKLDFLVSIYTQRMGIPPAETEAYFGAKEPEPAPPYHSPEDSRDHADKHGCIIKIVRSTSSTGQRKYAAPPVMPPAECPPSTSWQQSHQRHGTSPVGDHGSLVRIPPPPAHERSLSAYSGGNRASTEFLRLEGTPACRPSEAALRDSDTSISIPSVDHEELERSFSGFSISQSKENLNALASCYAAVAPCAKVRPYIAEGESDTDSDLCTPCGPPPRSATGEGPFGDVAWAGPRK
KCNQ2 pot baseline – further read-out of KCNQ2 pot, marked with its call; B-score; compound at 10 µM; measured here: initial fluorescence intensity artifact check;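 brightness before thallium and not channel activity; 0 = typical well and far values either way flag optical interference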
The depositor's hits bear a star; . = no result given. A portion of the library, so the mix of outcomes need not match the whole.

SMILES	KCNQ2 pot	KCNQ2 pot baseline
O=S(=O)(Cc1ccccc1Cl)CC(O)COc1ccccc1Cl (stereo not given)	0.22	-0.34
CCOC(=O)CCNC(=O)c1ccccc1Br	0.05	0
O=C(COC(=O)CCC(=O)c1ccc(F)cc1)Nc1ccc(F)cc1F	1.13	0.9
O=C(COC(=O)c1ccccc1O)Nc1ccc(OC(F)F)cc1	0.79	-0.7
C=CCOCCN(C)C1=NS(=O)(=O)c2ccccc21	0.8	-1.51
COc1ccccc1CC(=O)Nc1ccc(-c2noc(COc3ccc(Br)cc3)n2)cc1	2.89	-0.51
Cc1ccc(C(=O)C(=O)c2ccc(C)c(N)c2)cc1N	0.33	0.92
Cn1nc(CC(=O)Nc2ccc3c(c2)CCC3)c2ccccc2c1=O	0.04	0.27
O=C(/C=C/c1ccc(Br)o1)Nc1nccs1	0.86	1.79
CCCCC(=O)N=c1sc2c(OC)ccc(OC)c2n1C	0.09	1.91
COc1ccc(/C(N)=N/OC(=O)c2cccc([N+](=O)[O-])c2C)cc1	0.58	0.6
O=C(CCCOc1ccc(Cl)cc1)Nc1cccc(C(=O)O)c1	1.41	-0.62
CSc1cccc(CNC(=O)C2CCC(=O)N(CCCN3CCCC3=O)C2)c1 (stereo not given)	0.95	-0.54
CC1CCCCC1NC(=O)CSc1nc2ccccc2[nH]1 (stereo not given)	1.63	1.18
N#C/C(=C(\O)c1ccco1)c1ccccn1	1.59	-1.59
C[C@]12CCC3C(CC[C@H]4CCCC[C@]34C)C1CC[C@@]2(O)CNCCO (stereo not given in full)	0.04	-0.04
Cc1ccc(C(=O)/C=C2\NCC(C)NC2=O)cc1 (stereo not given)	2.88	-0.02
O=C(CSc1nnc(CNC(=O)C23CC4CC(CC(C4)C2)C3)n1-c1ccc(F)cc1)Nc1ccccc1	0.35	-0.86
COc1ccc(NC(=O)c2cccc3c2C(=O)N(C2CCCCC2)C3)cc1	0.07	-1.28
COc1ccc(NC2CCCN(C(=O)CCN3CCCO3)C2)cc1 (stereo not given)	1.01	0.26
CC(=O)Nc1cc2nn(-c3ccccc3)nc2cc1Cl	0.27	0.63
O=S1CCCSC1c1cccnc1 (stereo not given)	0.93	-2.34
COc1ccc(N(CC(=O)Nc2ccc(C)c(F)c2)S(=O)(=O)c2c(C)noc2C)cc1	0.04	0.59
CCOc1cc(C=O)ccc1OS(=O)(=O)c1ccc(NC(C)=O)cc1	0.01	-0.47
CCC(=O)Nc1cccc(NC(=O)CSc2nnnn2C)c1	1.63	0.38
COc1ccccc1NC(=O)NNC(=O)c1ccc2c(c1)NC(=O)C(C)(C)O2	0.56	-1.61
CCN(CCO)c1ncnc2onc(-c3ccc(F)cc3)c12	0.6	0
Cc1ccc(Cl)cc1N1CCN(S(=O)(=O)c2c(C)[nH]c(=O)[nH]c2=O)CC1	0.05	0.06
Cc1ccc(C2C(C(=O)c3cc4ccccc4o3)=C(O)C(=O)N2CCN2CCOCC2)o1 (stereo not given)	0.46	1.55
Cc1ccc(NC(=O)c2cc(S(=O)(=O)N3CCOCC3)cn2C)cc1F	0.06	-1.08
Cc1ccc(N=Cc2sc(O)c3ccccc23)c(C)c1	0.21	0.91
O=C(c1ccc(F)cc1)N1CCN(c2ccc([N+](=O)[O-])c(N3CCOCC3)c2)CC1	0.35	-2.89
O=C(Cc1cccs1)NCCc1ccc(F)cc1	1.27	1.09
C=CCn1c(SCC(=O)N2CCCCC2)nc(O)cc1=O	1.54	-2.21
COc1ccc(NC(=O)c2ccc(Br)c(S(=O)(=O)N3CCOCC3)c2)cc1	2.73	-1.95
CCCC(=O)C1=C(O)C(C(=O)OC)C(C)(C)CC1=NCCc1ccccc1 (stereo not given)	1.24	-0.48
CC1CCCCN1C(=O)NC1CC(=O)N(c2ccc3c(c2)OCCO3)C1 (stereo not given)	0.23	-0.02
O=C(NCCCN1CCOCC1)c1coc2ccccc2c1=O	1.2	0.02
CC1=C(C(=O)OC(C)C)C(/C=C/c2ccccc2)NC(=O)N1 (stereo not given)	2.22	-1.49
CCCCCc1nnc(NC(=O)Cc2ccc([N+](=O)[O-])cc2)s1	0.25	0.88
CC(=O)c1cccc(NC(=O)C2CCN(S(=O)(=O)c3c(C)n[nH]c3C)CC2)c1	0.06	-3.1
CN(C)c1ccc(/C=C/C(=O)c2ccccc2)cc1[N+](=O)[O-]	0.65	0.04
COc1ccccc1S(=O)(=O)Cc1ccc(C(=O)NCc2cccnc2)o1	1.3	-0.24
CC(OC(=O)CNC(=O)c1ccc(Cl)c(Cl)c1)C(=O)N1CCOCC1 (stereo not given)	0.8	1.55
Cc1cccc(C(=O)Nc2nnc(-c3cccnc3)o2)c1	1.09	2.05
COCCn1c(=S)[nH]c2cc(C(=O)N3CCCC(C)C3)ccc2c1=O (stereo not given)	0.62	-0.07
O=C(Cc1ccc(S(=O)(=O)N2CCOCC2)s1)N1CCN(c2cccc(C(F)(F)F)c2)CC1	2.77	-0.67
COc1cc(/C=C2/NC(=O)N(Cc3ccccc3F)C2=O)cc(OC)c1OC	1.07	0.88

Full records, quoted from the list.
O=C(Cc1ccc(S(=O)(=O)N2CCOCC2)s1)N1CCN(c2cccc(C(F)(F)F)c2)CC1 is listed as KCNQ2 pot = 2.77; KCNQ2 pot baseline = -0.67
COCCn1c(=S)[nH]c2cc(C(=O)N3CCCC(C)C3)ccc2c1=O (stereo not given) is listed as KCNQ2 pot = 0.62; KCNQ2 pot baseline = -0.07
COc1cc(/C=C2/NC(=O)N(Cc3ccccc3F)C2=O)cc(OC)c1OC is listed as KCNQ2 pot = 1.07; KCNQ2 pot baseline = 0.88

Additional results follow.
SMILES	KCNQ2 pot	KCNQ2 pot baseline
Cc1nnc(SCC(=O)N/N=C/c2cn(-c3ccccc3)nc2-c2ccc(F)cc2)n1-c1ccccc1	0.64	-0.27
COC(C[C@@H](O)[C@@H](C)[C@@H](O)COCc1ccccc1)OC	0.75	1.32
CCCCNc1nc(=S)n(-c2ccccc2)c(C)c1C(C)=O	0.72	2.31
O=C(NC1(C(F)(F)F)NC(=O)N(Cc2ccco2)C1=O)c1cccs1 (stereo not given)	0.11	0.01
COC(=O)C1=C(C(=O)OC)[C@@H]2Nc3ccccc3[C@@]23C[C@@H](C(=O)OC)N=C3N1	0.23	0.93
Cc1ccc(NC(=O)Nc2ccc3c(c2)nnn3C)cc1C	0.13	-0.35
COC(=O)c1ccccc1CCC(C)=O	1.15	0.43
COc1ccc(NC(=O)c2noc(C(C)C)c2[N+](=O)[O-])cc1	0.01	1.11
COc1ccccc1NC(=O)CSC1=NC(=O)C(NC(C)=O)C(=O)N1 (stereo not given)	0.47	0.61
Cc1nc(SCC(=O)Nn2c(-c3ccccc3)nc3ccccc3c2=O)n[nH]1	1.13	-1.6
Cc1cc(NC(=O)Nc2cccc(Cl)c2)n(C(C)(C)C)n1	2.17	-1.26
CCn1ccnc1CN(C)C(=O)c1cc(COc2ccc(OC)c3ccccc23)on1	0.75	-1.06
COCCCN=C1NN=C(c2cc(C)n(Cc3ccccc3Cl)c2C)CS1	0.68	0.11
Fc1cccc(CNCC2CCCO2)c1 (stereo not given)	2.23	0.04
CCOc1ccc(C(=O)Nc2cccc(C)n2)cc1	0.77	-0.46
Cc1ccc(NC(=O)Cc2ccc(F)cc2)cc1	2.25	-1.55
Cc1c(NC(=O)CSc2nnc(N)s2)c(=O)n(-c2ccccc2)n1C	0.61	0.52
Cc1ccc(-c2cc(C(=O)NCCc3ccccn3)c3ccccc3n2)c(C)c1	2.36	-0.48
COc1cc(OC)c(OC)cc1CN1CCSCC1	0.22	1.94
CCCc1nnc(NC(=O)CCC(=O)N2CCN(Cc3ccc(OC)c(F)c3)CC2)s1	0.28	-0.95
COc1ccc(N2CCN(C(=O)CN3C(=O)c4ccccc4S3(=O)=O)CC2)cc1	0.42	-0.47
O=C(CSCc1ccc(Br)cc1)NCCc1ccccc1	-5.54	.
O=C(NCCN1CCCCC1)Nc1ccc(Cl)cc1	0.35	-0.03
CCc1noc(C)c1C(=O)NNC(=O)c1ccc(F)cc1	0.18	0.37
CC(CNS(=O)(=O)c1ccc(Br)cc1)CN(C)C (stereo not given)	0.69	-0.07
CCOC(=O)c1c(CSc2ccccc2)oc2cc(Br)c(O)c(CN(C)C)c12	0.71	-0.65
COc1cccc(-c2nc(=S)c3c(n2CCCO)CCCC3)c1	1.33	-0.3
COc1cccc(-n2cc(C(=O)NCCCOC(C)C)c3ccccc3c2=O)c1	0.2	0.01
CCCCC(=O)Nc1ccc(NC(=O)CC)cc1OC	2.59	-0.5
O=C(Nc1nnc(S(=O)(=O)N2CCCCCC2)s1)c1ccccc1Br	0.56	-2.47
CC1CCN(S(=O)(=O)c2ccc3c(c2)oc(=O)n3CC(=O)N2c3ccccc3CC2C)CC1 (stereo not given)	0.09	0.08
CN(CC(=O)Nc1cccc(F)c1)C(=O)c1ccc(NC2CC2)c([N+](=O)[O-])c1	1.06	-0.69
CCOc1ccc(C2C3=C(CCCC3=O)OC(N)=C2[N+](=O)[O-])cc1 (stereo not given)	0.15	-0.3
Cc1onc(-c2c(F)cccc2Cl)c1C(=O)N(C)CC(=O)Nc1cccc(F)c1	3.34	-0.31
O=C1NC(=O)/C(=C/c2cccc(O)c2)N1	0.02	-0.19
O=C(CN(c1ccc(F)cc1)S(=O)(=O)c1ccccc1)NC1CCCCCC1	0.94	-0.27

Ordered by length of the SMILES (largest number first): three of the compounds above
SMILES	KCNQ2 pot	KCNQ2 pot baseline
Cc1onc(-c2c(F)cccc2Cl)c1C(=O)N(C)CC(=O)Nc1cccc(F)c1	3.34	-0.31
COc1cccc(-c2nc(=S)c3c(n2CCCO)CCCC3)c1	1.33	-0.3
CC(CNS(=O)(=O)c1ccc(Br)cc1)CN(C)C (stereo not given)	0.69	-0.07

(next part)
SMILES	KCNQ2 pot	KCNQ2 pot baseline
O=CN1CCN(C(=O)c2cccc([N+](=O)[O-])c2)CC1	0.59	-0.88
COCCNC(=O)COC(=O)c1nsc(Cl)c1Cl	2.15	-1.61
NC(=O)c1ccccc1OCCOc1ccc(Br)cc1	0.82	2.04
O=[N+]([O-])c1cccc(C(O)C23CN4CN(CN(C4)C2)C3)c1 (stereo not given)	0.67	0.6
CCN(CC(=O)Nc1c(F)cccc1F)C(=O)COc1cccc2c1OC(C)(C)C2	1.46	0.01
COc1cc(/C=N/N=C2/NC(=O)C(c3ccccc3)S2)ccc1O (stereo not given)	0.83	1.41
CN(CCNC(=O)C1CCC(=O)N(Cc2cccc(F)c2)C1)CCc1ccccc1 (stereo not given)	0.04	1.46
Cc1cc(Nc2cccc(Cl)c2)c2ccccc2n1	1.2	0.14
CCCn1c(SCC(N)=O)nnc1C(C)C	1.16	-0.08
CN(CC(=O)Nc1ccccc1Cl)C(=O)C1CCN(C(=O)c2ccc(Cl)cc2)CC1	0.25	0.25
O=C(N/N=C/C=C/c1ccccc1)c1ccccc1Br	1.1	-1.59
CC(NC(=O)NC(=O)c1cccc([N+](=O)[O-])c1)C1CC1 (stereo not given)	0.35	-2.52
COc1cc(C(=O)Nc2nccs2)ccc1OCc1c(C)noc1C	1.01	0.17
Cc1c2cnn(CC(=O)NCc3ccccn3)c(=O)c2c(C)n1Cc1ccccc1	0.11	0.01
CCOC(=O)C1CCN(CC(O)COc2ccc(C(=O)CC)cc2)CC1 (stereo not given)	0.87	-0.44
NS(=O)(=O)c1ccc(CCNC(=O)C2CCN(S(=O)(=O)c3cccc4cccnc34)CC2)cc1	0.03	0.39
COc1ccc(C(C)=O)cc1CN1C(=O)NC2(CCCCC2)C1=O	0.02	0.14
O=C(CN(C1CCCCC1)S(=O)(=O)c1ccccc1)NCC1CCCO1 (stereo not given)	0.61	-1.72
CC(C)(C)OC(=O)CN1C(=O)S/C(=C\c2ccc(-c3cccc(C(=O)O)c3)o2)C1=O	2.36	-1.13
CCCCC(=O)Nc1ccc(NC(=O)c2ccc(C)c([N+](=O)[O-])c2)cc1OC	1.09	-0.65
COCCc1nnc(NC(=O)C23CC4CC(CC(C4)C2)C3)s1	1	1.79
O=C(O)CSc1nc(-c2ccccc2)nc2c1CCCC2	1.72	0.82
Cc1ccccc1NC(=O)c1ccc(CN2CC(=O)N3CCCCC3C2=O)cc1 (stereo not given)	0.79	-1.02
CC1(C(=O)OCC(=O)Nc2ccccc2)CC1(Cl)Cl (stereo not given)	0.19	-1.26
COc1cc(OC)nc(S(C)(=O)=O)n1	1.24	0.71
Cc1c(C(=O)OCC(=O)NCC2CCCO2)cccc1[N+](=O)[O-] (stereo not given)	0.04	0.41
Cc1nn(C(=O)CCC(=O)NCCc2ccccc2)c2ccccc12	0.98	1.05
CCOC(=O)COc1c(Br)cc(/C=C2\SC(=O)N(CC(=O)N3CCCC3)C2=O)cc1OC	0.35	0.39
COCCNC(=O)Cn1cnc2c(cnn2-c2ccc(OC)cc2)c1=O	1.87	0.32
Nc1ncnc2c1ncn2[C@@H]1O[C@H](CO)[C@@H](O)[C@H]1O	1.84	-2.4
O=C(CCCC(=O)NC1CCCCC1)Nc1ccc([N+](=O)[O-])cc1	2.07	-2.08
Cc1ccc(-n2[nH]c(C)c(/C=N/c3cccc(C)n3)c2=O)cc1	0.87	0.06
COc1ccccc1NC(=O)CCc1nnc2ccc(N3CCCCC3)nn12	1.37	2.06
O=C(NCC1CCCO1)c1cc2ccccc2cc1O (stereo not given)	0.03	1.57
O=C(O)c1ccc(OC2CSC2)cc1	0.16	-0.79
Cc1ccc2c(c1)N(CC(=O)O)C(=O)CO2	0.24	0.45

Fetched by compound from the entries so far:
SMILES	KCNQ2 pot	KCNQ2 pot baseline
COc1cc(OC)nc(S(C)(=O)=O)n1	1.24	0.71
Cc1c(C(=O)OCC(=O)NCC2CCCO2)cccc1[N+](=O)[O-] (stereo not given)	0.04	0.41
Cc1ccc(-n2[nH]c(C)c(/C=N/c3cccc(C)n3)c2=O)cc1	0.87	0.06
